PKD1 kinase inh: inhibitors of human PKD1 kinase | Q15139 | PKD1 kinase fluorescence polarization assay | inhibition, %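 (about 10 µM by stock and volumes)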 | actives 0.056% (n = 200,000);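 active means inhibition of 50% or more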;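 further: controls were vehicle for no effect and a reference inhibitor for full effect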
RGS16-Gao: regulators of human RGS16-Galphao interaction. O15492+P09471. bead-based flow cytometry RGS16-Galphao binding, fluorescence; actives lie on both sides. binding response (% of control), % at 10 µM. actives 0.38% (n = 220,000). AID 1441;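 active means below 25% or above 175%, edge rows of some plates excepted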;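 further: Galphao activated by GDP with aluminum fluoride before binding; 100% = wells without compound and 0% = beads without RGS; some results beyond the cut were filed as inactive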
Target sequence (O15492 whole entry, looked up): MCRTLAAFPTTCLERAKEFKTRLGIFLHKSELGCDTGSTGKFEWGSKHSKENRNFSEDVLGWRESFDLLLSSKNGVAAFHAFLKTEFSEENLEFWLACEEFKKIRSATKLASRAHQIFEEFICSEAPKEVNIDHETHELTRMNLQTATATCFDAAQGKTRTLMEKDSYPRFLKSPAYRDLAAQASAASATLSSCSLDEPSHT
Target sequence (P09471 whole entry, looked up): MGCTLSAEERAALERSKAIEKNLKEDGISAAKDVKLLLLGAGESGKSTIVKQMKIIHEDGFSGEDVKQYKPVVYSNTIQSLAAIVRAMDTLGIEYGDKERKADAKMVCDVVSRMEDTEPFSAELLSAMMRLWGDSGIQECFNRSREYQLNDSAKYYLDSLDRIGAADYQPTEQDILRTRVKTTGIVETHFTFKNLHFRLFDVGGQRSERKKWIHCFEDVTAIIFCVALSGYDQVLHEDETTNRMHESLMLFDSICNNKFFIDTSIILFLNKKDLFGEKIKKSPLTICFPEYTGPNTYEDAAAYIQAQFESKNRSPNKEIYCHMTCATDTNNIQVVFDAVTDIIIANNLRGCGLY
Insulin prom inh: TRM-6 insulin promoter activity inhibition | TRM-6 cells (human fetal islet line), insulin promoter-eGFP reporter, imaging; reporter expression induced with tamoxifen | inhibition, % at 2 µM | actives 0.9% (n = 130,000) | AID 1273;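 active means inhibition above the mean plus 3 SD, with well images judged a real hit on visual review, cut at about 60% in these data, passing the limit was not always enough; inconclusive means inhibition over the cutoff but images rejected on review; inactive means inhibition not above the cutoff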
HSV replic up: increases HSV replication in cells; actives 0.005% (n = 220,000); maximum fold increase; HSV replication augmentation in cells, fold increase; AID 1956;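 active means peak rise of 1.5-fold or more in the series; inconclusive means self-fluorescent or not available for retest; tested in PC3 cells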;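 further: first round at 10 µM; read as green reporter fluorescence; hits show the peak of a series up to 25 µM; 1 = signal of infected wells without compound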
GALR2 agonist: activates the human galanin receptor 2. O43603. GALR2-expressing cells, agonist activation read-out. activation, %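 (tested at 5 µM)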. actives 0.48% (n = 140,000). AID 803;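 active means above mean plus 3 SD of all compounds, about 5% in these data, not always enough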;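 further: 0% = vehicle buffer wells and 100% = reference agonist at full effect; tested in CHO reporter cells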
Target sequence (O43603 whole entry, looked up): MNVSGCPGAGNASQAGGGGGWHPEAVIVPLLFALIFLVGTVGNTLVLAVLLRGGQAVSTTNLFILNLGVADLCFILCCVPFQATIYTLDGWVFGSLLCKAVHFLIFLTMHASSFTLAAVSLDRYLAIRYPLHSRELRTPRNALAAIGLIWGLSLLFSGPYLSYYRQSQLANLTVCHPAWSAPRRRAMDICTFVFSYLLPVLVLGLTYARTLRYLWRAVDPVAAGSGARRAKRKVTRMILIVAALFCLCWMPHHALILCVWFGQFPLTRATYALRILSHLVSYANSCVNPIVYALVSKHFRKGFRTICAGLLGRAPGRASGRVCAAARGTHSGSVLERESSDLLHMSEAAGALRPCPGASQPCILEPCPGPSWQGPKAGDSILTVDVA
Insulin prom inh cell count: also measured in Insulin prom inh; calls as there; normalized cell count, %; measured here: cell count, toxicity; reference of the scale not given here;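 cells exposed to compound for 48 h; stained nuclei by imaging scaled within each plate; lower means fewer cells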
HSV replic up primary fold: also measured in HSV replic up; calls as there; fold increase; compound at 10 µM; measured here: primary screen fold increase 10 uM; tested in PC3 cells;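 GFP signal in the first replicate; 1 = infected wells without compound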
The depositor's hits bear a star; & = joins results of further samples. Rows were taken by chance; overall some 1.2% were active at least once.

Screening COC(=O)c1ccccc1NS(=O)(=O)c1ccc(NC(C)=O)cc1 returned PKD1 kinase inh -7, RGS16-Gao 137, Insulin prom inh 7, HSV replic up inactive, Insulin prom inh cell count 135 and HSV replic up primary fold 0.87.
CN(Cc1cnccn1)C(=O)CC1C(=O)NCCN1Cc1c(F)cccc1Cl (stereo not drawn) was read as RGS16-Gao 104, HSV replic up inactive and HSV replic up primary fold 1.
For N#C/C(=C\c1cc2ccccc2nc1N1CCCCC1)C(N)=O the results were PKD1 kinase inh -7, RGS16-Gao 88, Insulin prom inh 7, HSV replic up inactive, GALR2 agonist -1.0, Insulin prom inh cell count 40 and HSV replic up primary fold 0.89.
`O=S(=O)(NN=C1CCCCC1)c1ccccc1` gave PKD1 kinase inh -1, RGS16-Gao 99, Insulin prom inh 3, HSV replic up inactive, Insulin prom inh cell count 141 and HSV replic up primary fold 0.85.
Screening O=C(/C=C/c1ccccc1Cl)Nc1ccc(Cl)cn1 returned PKD1 kinase inh -4, RGS16-Gao 98, HSV replic up inactive and HSV replic up primary fold 0.9.
Screening O=C(CSc1nnc(-c2ccco2)o1)c1ccc(O)cc1O returned PKD1 kinase inh 2, RGS16-Gao 110, HSV replic up inactive and HSV replic up primary fold 1.
For CC(=O)N/C(=C\c1ccccc1)C(=O)OCC(=O)NC1CCCC1 the results were PKD1 kinase inh -2, RGS16-Gao 104, HSV replic up inactive, GALR2 agonist -0.4 and HSV replic up primary fold 1.3.
`COc1ccc(COCC(O)CN(Cc2ccccc2)C(C)C)cc1OC` (stereo not drawn) gave PKD1 kinase inh 7, RGS16-Gao 91, HSV replic up inactive and HSV replic up primary fold 0.94.
`CC(=O)c1ccc(-c2nnc(CCC(=O)N(C)Cc3cnc4ccccn34)o2)s1` gave PKD1 kinase inh 9, RGS16-Gao 157, HSV replic up inactive and HSV replic up primary fold 0.96.
O=C(NCCc1ccccc1)c1n[nH]c(=O)c2ccccc12 was read as PKD1 kinase inh -1, RGS16-Gao 111, Insulin prom inh 55, HSV replic up inactive, Insulin prom inh cell count 66 and HSV replic up primary fold 0.94.
For CCCCCOc1ccc(Cl)cc1CN1CCOCC1 the results were PKD1 kinase inh -7, RGS16-Gao 105, Insulin prom inh 15, HSV replic up inactive, GALR2 agonist -2.5, Insulin prom inh cell count 88 and HSV replic up primary fold 0.74.
Brc1ccc(-c2nc(-c3ccccc3)no2)o1 was read as PKD1 kinase inh 3, RGS16-Gao 97, Insulin prom inh 29, HSV replic up inactive, GALR2 agonist 1.1, Insulin prom inh cell count 115 and HSV replic up primary fold 0.89.
For Clc1ccc2nc(N3CCNCC3)nc(-c3ccccc3)c2c1 the results were PKD1 kinase inh -10, RGS16-Gao 90, Insulin prom inh -173, HSV replic up inactive, GALR2 agonist 24*, Insulin prom inh cell count 64 and HSV replic up primary fold 0.8.
For CC[C@H](C)C(=O)O[C@H]1CCC=C2C=C[C@H](C)[C@H](CC[C@@H]3C[C@@H](O)CC(=O)O3)[C@H]21 the results were PKD1 kinase inh 11, RGS16-Gao 93&105, Insulin prom inh -133, HSV replic up inactive, Insulin prom inh cell count 24 and HSV replic up primary fold 0.79.
COc1cccc(/C=N/n2c(-c3cc(C)[nH]n3)n[nH]c2=S)c1 was read as RGS16-Gao 108, HSV replic up inactive and HSV replic up primary fold 1.1.
Screening CCCCN1C(=O)C2Cc3c([nH]c4ccccc34)CN2C1=S (stereo not drawn) returned PKD1 kinase inh 7, RGS16-Gao 95, Insulin prom inh -186, HSV replic up inconclusive and Insulin prom inh cell count 178.
For O=C(NNC(=O)c1cc([N+](=O)[O-])ccc1Cl)c1cccs1 the results were PKD1 kinase inh -2, RGS16-Gao 114, Insulin prom inh -38, HSV replic up inactive, GALR2 agonist -1.3, Insulin prom inh cell count 63 and HSV replic up primary fold 1.1.
`Cc1cc(/C=C(\C#N)C(=O)NCc2ccco2)c(C)[nH]1` gave PKD1 kinase inh 0, RGS16-Gao 108, Insulin prom inh 6, HSV replic up inactive, GALR2 agonist -1.8, Insulin prom inh cell count 123 and HSV replic up primary fold 0.9.
`Cc1c(-c2ccc(Br)cc2)nc2ccccn12` gave PKD1 kinase inh -1, RGS16-Gao 103, HSV replic up inactive, GALR2 agonist -1.4 and HSV replic up primary fold 1.
Screening CC1(C)Cc2cccc(Oc3ccc(S(=O)(=O)N4CCCCC4)cn3)c2O1 returned PKD1 kinase inh 4, RGS16-Gao 104, Insulin prom inh -100, HSV replic up inactive, Insulin prom inh cell count 80 and HSV replic up primary fold 0.85.
Screening Cc1nc([N+](=O)[O-])cn1CC(O)c1ccc(Cl)cc1 (stereo not drawn) returned RGS16-Gao 96, HSV replic up inactive and HSV replic up primary fold 1.8.
Screening Cc1cccc(-n2c(CNC(=O)c3ccc(S(=O)(=O)N(C)C)cc3)nnc2SCC(=O)Nc2ccc(F)cc2)c1 returned PKD1 kinase inh 2, RGS16-Gao 108, HSV replic up inactive, GALR2 agonist -0.4 and HSV replic up primary fold 0.89.
Screening CSc1ccccc1C(=O)N1CCN(c2ccc(F)cc2)CC1 returned PKD1 kinase inh 1, RGS16-Gao 105, Insulin prom inh -14, HSV replic up inactive, GALR2 agonist -1.6, Insulin prom inh cell count 211 and HSV replic up primary fold 0.74.
CCCCCCOc1ccc(C(CC(=O)NC)C(=O)O)cc1 (stereo not drawn) was read as PKD1 kinase inh 2, RGS16-Gao 105, HSV replic up inactive and HSV replic up primary fold 1.
For Cc1nn(C)c(Nc2ccc(Br)cc2)c1Br the results were PKD1 kinase inh -2, RGS16-Gao 100, HSV replic up inactive and HSV replic up primary fold 1.
CCC1=Nc2ccc(Br)cc2C(c2ccccc2)N1CC(=O)OC (stereo not drawn) was read as PKD1 kinase inh -1, RGS16-Gao 99, HSV replic up inactive, GALR2 agonist -3.9 and HSV replic up primary fold 0.99.
For CCCN1CCc2[nH]c(=S)[nH]c(=O)c2C1 the results were PKD1 kinase inh -7, RGS16-Gao 75, HSV replic up inactive, GALR2 agonist 0.2 and HSV replic up primary fold 1.2.
For CCOC(=O)c1sc(NC(=S)NC(=O)CC(C)C)cc1C the results were PKD1 kinase inh -7, RGS16-Gao 118, Insulin prom inh -54, HSV replic up inactive, GALR2 agonist -1.8, Insulin prom inh cell count 132 and HSV replic up primary fold 1.
For COCC(=O)Nc1ccc2c(c1)OCO2 the results were PKD1 kinase inh -1, RGS16-Gao 102, Insulin prom inh 14, HSV replic up inactive, Insulin prom inh cell count 64 and HSV replic up primary fold 0.99.
`Cc1ccc(N2C(=O)N(CC(=O)Nc3ccc(C)cc3C)C(=O)C2C)cc1` (stereo not drawn) gave PKD1 kinase inh 10, RGS16-Gao 106, HSV replic up inactive and HSV replic up primary fold 0.99.

Three entries picked at random from those above, as already listed:
CCC1=Nc2ccc(Br)cc2C(c2ccccc2)N1CC(=O)OC (stereo not drawn) was read as PKD1 kinase inh -1, RGS16-Gao 99, HSV replic up inactive, GALR2 agonist -3.9 and HSV replic up primary fold 0.99.
Screening CSc1ccccc1C(=O)N1CCN(c2ccc(F)cc2)CC1 returned PKD1 kinase inh 1, RGS16-Gao 105, Insulin prom inh -14, HSV replic up inactive, GALR2 agonist -1.6, Insulin prom inh cell count 211 and HSV replic up primary fold 0.74.
For CCCN1CCc2[nH]c(=S)[nH]c(=O)c2C1 the results were PKD1 kinase inh -7, RGS16-Gao 75, HSV replic up inactive, GALR2 agonist 0.2 and HSV replic up primary fold 1.2.

Carrying on:
CCC(C)NC(=O)c1cccc(OCc2c(C)noc2C)c1 (stereo not drawn) was read as PKD1 kinase inh -9, RGS16-Gao 100, Insulin prom inh -65, HSV replic up inactive, Insulin prom inh cell count 126 and HSV replic up primary fold 1.1.
For CCN(c1cccc2ccccc12)S(=O)(=O)c1ccc(Cl)nc1 the results were RGS16-Gao 102, HSV replic up inactive and HSV replic up primary fold 1.3.
`CC(=O)C1=C(C)N(CC2CC2)C(=O)N[C@H]1c1cccs1` gave PKD1 kinase inh -5, RGS16-Gao 98, Insulin prom inh 10, HSV replic up inactive, GALR2 agonist -2.8, Insulin prom inh cell count 94 and HSV replic up primary fold 0.91.
`O=C(CNS(=O)(=O)/C=C/c1ccccc1)OCC(=O)N1CCC(Cc2ccccc2)CC1` gave PKD1 kinase inh 2, RGS16-Gao 100, Insulin prom inh 4, HSV replic up inactive, GALR2 agonist -2.2, Insulin prom inh cell count 89 and HSV replic up primary fold 0.79.
Screening CCOC(=O)CCn1cc(F)c(=O)n(Cc2ccccc2)c1=O returned PKD1 kinase inh 0, RGS16-Gao 51, HSV replic up inactive, GALR2 agonist -0.7 and HSV replic up primary fold 0.89.
Screening COc1ccc(/C=C/C(=O)NC(=S)NNC(=O)c2ccco2)cc1 returned PKD1 kinase inh 1, RGS16-Gao 100, Insulin prom inh 37, HSV replic up inconclusive, GALR2 agonist -2.1 and Insulin prom inh cell count 153.
COc1ccc(Cn2nnnc2C(C(C)C)N(Cc2ccco2)Cc2cccs2)cc1 (stereo not drawn) was read as PKD1 kinase inh 2, RGS16-Gao 103, Insulin prom inh -81, HSV replic up inactive, GALR2 agonist -1.7, Insulin prom inh cell count 178 and HSV replic up primary fold 1.
`CC(C)C(=O)Nc1cccc(NC(=O)c2ccc(Cl)cc2Cl)c1` gave PKD1 kinase inh -10, RGS16-Gao 152, Insulin prom inh 0, HSV replic up inactive, GALR2 agonist -1.4, Insulin prom inh cell count 57 and HSV replic up primary fold 0.94.
Screening O=C(NN1C(=O)c2ccccc2C1=O)C1CC2CCC1C2 (stereo not drawn) returned PKD1 kinase inh -1, RGS16-Gao 100, Insulin prom inh 0, HSV replic up inactive, GALR2 agonist 1.1, Insulin prom inh cell count 110 and HSV replic up primary fold 1.
`c1ccc(-c2ccccc2OCCn2cncn2)cc1` gave PKD1 kinase inh -10, RGS16-Gao 101, Insulin prom inh 22, HSV replic up inactive, GALR2 agonist -0.9, Insulin prom inh cell count 120 and HSV replic up primary fold 0.9.
CC(=O)Nc1ccc(Cc2ccncc2)cc1 was read as PKD1 kinase inh 2, RGS16-Gao 85, Insulin prom inh 0, HSV replic up inactive, GALR2 agonist -2.4, Insulin prom inh cell count 131 and HSV replic up primary fold 0.92.
Screening O=C1CC(SCCO)C(=O)N1c1ccccc1 (stereo not drawn) returned PKD1 kinase inh -3, RGS16-Gao 101, Insulin prom inh -10, HSV replic up inactive, GALR2 agonist -0.4, Insulin prom inh cell count 46 and HSV replic up primary fold 1.1.
For CCCn1nnnc1SCC(=O)NCc1ccccc1 the results were PKD1 kinase inh -7, RGS16-Gao 104, Insulin prom inh 29, HSV replic up inactive, GALR2 agonist -1.9, Insulin prom inh cell count 102 and HSV replic up primary fold 0.84.
`O=C(NC1=NCCS1)C1CC(=O)N(c2ccc(Cl)cc2)C1` (stereo not drawn) gave PKD1 kinase inh 4, RGS16-Gao 113, HSV replic up inactive and HSV replic up primary fold 0.8.
Screening CCCS(=O)(=O)N1CCN=C1SCc1cccc2ccccc12 returned PKD1 kinase inh -2, RGS16-Gao 98, Insulin prom inh -8 and Insulin prom inh cell count 99.
For COc1ccccc1/C=C/C1=NC(=C\N(C)C)/C(=O)O1 the results were PKD1 kinase inh -5, RGS16-Gao 109, Insulin prom inh -3, HSV replic up inactive, GALR2 agonist 2.6, Insulin prom inh cell count 73 and HSV replic up primary fold 1.
CCOC(=O)CNC(=O)CSc1ncnc2c1cnn2-c1ccc(OC)cc1 was read as PKD1 kinase inh -4, RGS16-Gao 110, HSV replic up inactive, GALR2 agonist -1.8 and HSV replic up primary fold 0.81.
Screening CC(C(=O)Nc1cccc(Br)c1)c1ccc([N+](=O)[O-])cc1 (stereo not drawn) returned PKD1 kinase inh 8, RGS16-Gao 108, Insulin prom inh 7, HSV replic up inactive, GALR2 agonist -0.3, Insulin prom inh cell count 108 and HSV replic up primary fold 0.93.
COc1ccc(NC(=S)N2CCN(Cc3ccc(C)cc3)CC2)cc1 was read as PKD1 kinase inh 2, RGS16-Gao 98, HSV replic up inactive and HSV replic up primary fold 1.
`CC(C)c1csc(CN2CCC(CO)(Cc3ccccc3)CC2)n1` gave PKD1 kinase inh 1, RGS16-Gao 112, Insulin prom inh -146, HSV replic up inactive, Insulin prom inh cell count 39 and HSV replic up primary fold 1.1.
For Cc1nnc2ccc(-c3ccc(NC(=O)c4ccco4)cc3)nn12 the results were PKD1 kinase inh -2, RGS16-Gao 90, Insulin prom inh -17, HSV replic up inactive, Insulin prom inh cell count 196 and HSV replic up primary fold 0.96.
For COc1ccc(CNC(=O)c2ccc(Cn3nc(C)c([N+](=O)[O-])c3C)o2)cc1 the results were PKD1 kinase inh -6, RGS16-Gao 93, Insulin prom inh 12, HSV replic up inactive, Insulin prom inh cell count 119 and HSV replic up primary fold 0.96.

From PubChem
